PrP 5UTR inh: suppresses PrP 5' UTR mRNA reporter expression; inhibition, % (test concentration not listed); AID 488862; hit rate 0.35% among 340,000; cell-based PrP 5' UTR mRNA reporter, plate reader;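 active = every replicate at 50% or more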;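 note: 0 = median of the neutral control wells; tested in H4 reporter cells; numbers are from one replicate; inactives centre near -14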
Mtb hypoxia rep: reduces hypoxia-regulated biosensor signal in M. tuberculosis. M. tuberculosis hypoxia-regulated fluorescent reporter, fluorescence. fluorescence inhibition, % (test concentration not listed). hit rate 0.1% among 300,000;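 active = 35 to 45% if threefold the growth effect, above 45% if 1.5-fold the growth effect; inactive = the rest, general growth blockers included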;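 note: wells of about 50 µL received 100 nL stock; 0% = vehicle wells and 100% = reference inhibitor wells; whole bacteria with a GFP reporter of the hypoxia response; strong numbers were not always called active; many hits fall short of the cut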
Sa RN4220 lethal: kills Staphylococcus aureus RN4220; inhibition, % (no concentration beside the values); S. aureus RN4220 growth, OD600, 16 h; hit rate 0.33% among 330,000;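 active = z-score of -3 or lower and OD600 up to 0.18 on both plates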;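 note: plate controls were untreated cells for no effect and reference antibiotic for full effect; stock transfer was 100 nL into about 80 µL; one replicate is shown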
BJeLR lethal: BJeLR cell viability loss | BJeLR (HRASV12) viability, CellTiter-Glo ATP luminescence, 48 h; reference of the scale not given here | hit rate 0.17% among 300,000 | AID 1554 | inhibition, % (test concentration not listed);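 active = replicate mean above 50%; inconclusive = above 50% but judged a plate artefact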;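 note: 50 nL library stock added to about 25 µL; numbers are from one replicate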
ugtP null kill: kills S. aureus RN4220 lacking UgtP; S. aureus RN4220 ugtP deletion, OD600 growth, 16 h; some inactives read as strong as hits; growth inhibition, % (no concentration beside the values); hit rate 0.54% among 330,000; AID 1259309;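 active = z-score under -3 and OD600 up to 0.15 on both plates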;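 note: plate controls were untreated wells for no effect and antibiotic for full effect; wells of about 80 µL received 100 nL stock; the first replicate is given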
Bead autofluor: flagged as autofluorescent in microsphere protease counterscreen; compound autofluorescence counterscreen, microsphere flow cytometry; hits give high values; fluorescence intensity (concentration not given with the values); hit rate 3.1% among 360,000;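 active = at least 3 SD above the mean of all compounds, about 16000 in these data; inconclusive = too few beads counted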;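 note: 100 nL of 1 mM stock went into each well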
Mtb hypoxia rep growth: recorded beside Mtb hypoxia rep, whose call it bears; growth inhibition, %; measured here: M. tuberculosis growth (absorbance);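 0% = vehicle and 100% = reference antibiotic; read after six days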
* hit, by the source's call; u = inconclusive; x = no result given; & = joins results of further samples.

Keys: A = PrP 5UTR inh; B = Mtb hypoxia rep; C = Mtb hypoxia rep growth; D = Sa RN4220 lethal; E = BJeLR lethal; F = ugtP null kill; G = Bead autofluor
> COc1ccc(-c2nnc3ccc(SCC(=O)NCc4ccco4)nn23)cc1OC
  A = -3; B = -7; C = 3; D = -2.8; E = 7; F = -9; G = 10361
> O=C(CN1CCc2ccccc2C1)Nc1ccccc1C(=O)NC1CC1
  A = -24; B = -6; C = -1; D = 4.0; E = x; F = 2; G = 3770
> O=C(O)c1ccc(N=Nc2c(-c3ccccc3)[nH]oc2=O)cc1
  A = -17; B = 1; C = -3; D = 4.2; E = 0; F = 3; G = 2821
> Cc1ccc(-c2nc(C=Nc3ccc(O)cc3)c(O)o2)cc1
  A = -43; B = 1; C = 6; D = 6.1; E = -4; F = -8; G = 3595
> O=C(NCCCN1CCN(CCCNC(=O)c2ccc(F)cc2)CC1)c1ccc(F)cc1
  A = -13; B = 11; C = 10; D = 6.3; E = 3; F = 3; G = 8549
> O=S(=O)(CC=CCS(=O)(=O)c1ccccc1)c1ccccc1
  A = -11; B = 10; C = 1; D = 5.8; E = x; F = 10; G = 4250
> COc1nc(OCCNC(C)=O)nc(N(C)C)n1
  A = -13; B = 3; C = 4; D = 1.3; E = 5; F = 0; G = 10476
> Cc1cc2c3nonc3ccc2n1C
  A = -27; B = x; C = x; D = 3.3; E = 5; F = -4; G = 2019
> COc1ccc(/C=N/NC(=O)c2cccc([N+](=O)[O-])c2)cc1OS(=O)(=O)c1ccc(C)cc1
  A = -24; B = x; C = x; D = x; E = 4; F = x; G = 8725
> COc1cccc(Nc2cc(C)nc3nc(C)nn23)c1
  A = -7; B = x; C = x; D = 7.2; E = -5; F = 15; G = 4872
> Clc1ccc(C2=Nn3c(nnc3-c3cc(-c4ccccc4)n[nH]3)SC2)cc1
  A = x; B = 0; C = 5; D = 1.7; E = -12; F = -37; G = 11049
> CCCCSc1nc2c(cnn2-c2ccccc2)c(=O)n1N
  A = -96; B = 0; C = 9; D = 2.8; E = 22; F = 22; G = 2613
> Cc1ccc2c(c1)c1c(n2CC(O)CN2CCCCC2C)CCCC1 (centres undefined)
  A = -11; B = 15; C = 8; D = 3.8; E = 5; F = 11; G = 5804
> Cc1ccc(C#N)c(SCc2ccccc2F)n1
  A = x; B = 13; C = 12; D = 3.9; E = -4; F = 19; G = 3401
> O=C(N/N=C\c1ccc(COc2ccc([N+](=O)[O-])cc2)o1)c1cccc(Cl)c1
  A = -110; B = x; C = x; D = x; E = -9; F = x; G = 4703
> Cc1ccc(S(=O)(=O)Oc2ccc3c(c2)O/C(=C\c2cccnc2)C3=O)cc1
  A = x; B = 6; C = 10; D = 7.6; E = -7; F = -19; G = 10982
> CCOc1ccc(-c2cc(CCCC(=O)NCc3cccnc3)no2)cc1
  A = -46; B = 9; C = 4; D = -1.8; E = -17; F = 18; G = 5048
> CC(=O)Nc1cccc(NC(=O)CSc2nnc(NC(=O)c3ccco3)s2)c1
  A = -20; B = 12; C = 6; D = 6.6; E = -2; F = -8; G = 6213
> O=C(CNc1ccccc1)N/N=C/c1cn(-c2ccccc2)nc1-c1ccccc1
  A = -19; B = x; C = x; D = x; E = 9; F = x; G = 9908
> Cc1c(C(=O)NN2CCOCC2)oc2c1ccc1ccccc12
  A = 51; B = 11; C = 12; D = 5.2; E = 0; F = -7; G = 4261
> CCNC(=S)NC1CC2CCCC(C1)N2Cc1ccc(C)cc1 (centres undefined)
  A = 10; B = -4; C = 4; D = -0.3; E = 2; F = 1; G = 4462
> NS(=O)(=O)c1ccc(CNC(=O)CCS(=O)(=O)Cc2ccccc2)cc1
  A = -14; B = -5; C = -3; D = 1.8; E = 6; F = 5; G = 6107
> COc1ccc(Cc2nnc(NC(=O)Nc3ccc(F)cc3)s2)cc1
  A = -24; B = 8; C = 3; D = 2.3; E = -9; F = -3; G = 4139
> O=C(Nc1cccnc1Cl)C1CCCN(c2ncnc3c2nc2n3CCCCC2)C1 (centres undefined)
  A = 2; B = -2; C = 6; D = 3.9; E = 0; F = 1; G = 5778
> CCOc1cc(/C=C2/NC(=O)N(CC(=O)Nc3cccc(C)c3)C2=O)ccc1O
  A = -9; B = x; C = x; D = -4.7; E = -10; F = -3; G = 4008
> CN(C)/C(=N\S(=O)(=O)c1ccccc1)c1ccc(F)cc1
  A = -50; B = x; C = x; D = x; E = -6; F = x; G = 4193
> CCCCn1c(N)c(N(CC(C)C)C(=O)C2CCN(c3ncnc4sc(C)c(C)c34)CC2)c(=O)[nH]c1=O
  A = 2; B = -3; C = 15; D = -4.2; E = 2; F = 0; G = 5898
> CCC(C)Sc1cccc(-c2nc3cc(C)ccn3c2NCc2ccccc2)c1 (centres undefined)
  A = -18; B = 14; C = 9; D = 7.2; E = -5; F = 7; G = 3587&6360
> COc1ccc(N2C(=O)NC(=O)/C(=C/c3cccc(OC(=O)c4cccs4)c3)C2=O)cc1Cl
  A = x; B = 6; C = 10; D = 2.9; E = -3; F = 5; G = x
> C=CCNC(=O)C1CC1(c1ccccc1)c1ccccc1 (centres undefined)
  A = -21; B = -2; C = 12; D = -4.8; E = -9; F = -1; G = 7999
> OCCN(CC#CC(O)(c1ccccc1)c1cccc(F)c1)CCO (centres undefined)
  A = -3; B = 10; C = -2; D = 4.1; E = 0; F = 10; G = 6459
> CC(C)CCNC(=O)Cc1csc(-c2ccccc2)n1
  A = -12; B = 3; C = 10; D = 2.6; E = -11; F = -1; G = 4695
> O=C(O)CN=C1CC(c2ccccc2)CC(=O)/C1=C(/O)CCCN1C(=O)c2ccccc2C1=O (centres undefined)
  A = -25; B = x; C = x; D = x; E = -6; F = x; G = 3538
> CC(C)n1c(SCC(=O)Nc2ccc(N3CCOCC3)cc2)nnc1-c1ccco1
  A = 3; B = -10; C = 5; D = -1.8; E = 11; F = 6; G = 3647
> CCCCCC1CN(CCCC)C(=O)C1CC(=O)NCc1ccc(OC)cc1 (centres undefined)
  A = x; B = 6; C = 7; D = 5.1; E = x; F = -8; G = x
> O=C(Nc1ccc(F)cc1)c1ccc(-n2cncn2)c([N+](=O)[O-])c1
  A = -7; B = 2; C = 5; D = -0.4; E = -4; F = 10; G = 3181
> O=C(COc1ccc(Cl)cc1Cl)NCC(=O)NN=Cc1c[nH]c2ccccc12
  A = x; B = -3; C = 4; D = 1.0; E = x; F = -8; G = x
> Cc1ccc(CCNC(=O)C2CCCN(S(=O)(=O)c3cccs3)C2)cc1 (centres undefined)
  A = -22; B = 1; C = 11; D = -1.2; E = 7; F = -2; G = 9373
> CCOC(=O)c1nnc(-c2ccccc2)nc1N1CCSCC1
  A = -10; B = -3; C = 5; D = 1.6; E = 0; F = -11; G = 2532
> O=C(NCc1ccco1)c1cc2sccc2n1Cc1ccccc1
  A = -24; B = 4; C = -3; D = -0.9; E = -2; F = 0; G = 8509
> ON=Cc1ccnc(SCc2ccc(Cl)cc2)n1
  A = x; B = 0; C = 4; D = -3.6; E = x; F = 20; G = x
> CCOC(=O)COc1coc(CN2CCN(c3cccc(Cl)c3)CC2)cc1=O
  A = -7; B = -4; C = 2; D = -4.1; E = 3; F = -9; G = 4540
> COC(=O)c1cc(NS(=O)(=O)c2ccc(NCc3cccnc3)c([N+](=O)[O-])c2)cc(C(=O)OC)c1
  A = -2; B = 12; C = -4; D = 0.5; E = -21; F = 3; G = 2070
> O=S(=O)(c1ccc(F)c(F)c1)N1CCN(c2ncccn2)CC1
  A = -24; B = 8; C = -2; D = 6.6; E = 7; F = 5; G = x
> COc1ccccc1CNC(=O)c1ccc(OCC2CCCO2)cc1 (centres undefined)
  A = 10; B = 6; C = 7; D = 8.7; E = 3; F = -3; G = 2663
> CCCCNCc1cc2ccccc2o1
  A = 2; B = 6; C = 6; D = 0.6; E = -5; F = -2; G = 3438
> CC(C)(C)c1ccc(C(=O)NCC(=O)OCN2C(=O)c3ccccc3C2=O)cc1
  A = -17; B = -5; C = -3; D = -3.5; E = x; F = -9; G = 5826
> S=C(NCc1ccccc1)N1CCN(Cc2ccc3c(c2)OCO3)CC1
  A = 3; B = 9; C = 10; D = 1.9; E = 10; F = -3; G = 2006
> O=C(Nc1ccc(F)cc1)N(CCCN1CCOCC1)Cc1cc2cc3c(cc2[nH]c1=O)OCO3
  A = -5; B = -7; C = 6; D = 25; E = 2; F = 21; G = 2934
> CC(C)C(NC(=O)c1ccccc1)C(=O)OCn1nnc2ccccc2c1=O (centres undefined)
  A = -17; B = 2; C = 6; D = -0.6; E = x; F = 1; G = 8845
> O=C(CN1C(=O)/C(=C2\SC(=S)N(C3CCS(=O)(=O)C3)C2=O)c2ccccc21)Nc1ccc(F)cc1 (centres undefined)
  A = -13; B = 1; C = 4; D = 3.4; E = 12; F = 3; G = 3729
> CCOC(=O)C(C)On1c(-n2nc(C)cc2C)nc2ccccc2c1=O (centres undefined)
  A = -6; B = -7; C = 2; D = 3.6; E = 6; F = 1; G = 4020
> CCOC(=O)Cc1csc(NC(=O)CSc2ccc(Br)cc2)n1
  A = 0; B = 6; C = -1; D = -1.3; E = 4; F = 0; G = 2848
> COc1cc(C2/C(=C(\O)c3cc(C)ccc3C)C(=O)C(=O)N2CCN(C)C)ccc1O (centres undefined)
  A = -22; B = x; C = x; D = -1.2; E = 4; F = 1; G = 5820
> COC(=O)c1ccc(CSc2nc3sc4c(c3c(=O)n2C)CCCC4)o1
  A = -4; B = 3; C = 6; D = 2.2; E = 1; F = -1; G = 6349
> COc1ccc(C(=O)C2CCCN(Cc3cccc(C)n3)C2)c(OC)c1 (centres undefined)
  A = -29; B = -6; C = 12; D = 1.6; E = -1; F = 9; G = 4296
> Cc1cc(C)c(C)c(S(=O)(=O)N2CCC(C(=O)NCCCN3CCOCC3)CC2)c1C
  A = -19; B = -3; C = 11; D = 0.4; E = x; F = -3; G = 3685
> Cc1ccc(SCCNC(=O)C(C)C)cc1
  A = -45; B = 18; C = 4; D = 6.0; E = 1; F = 6; G = 4200
> COc1ccc(/C=N/NC(=O)c2ccc(Cl)cc2)cc1COC(C)=O
  A = -15; B = x; C = x; D = x; E = -2; F = x; G = 7515
> NNc1cc([N+](=O)[O-])cc2c1C(=O)N(Cc1ccccc1)S2=O (centres undefined)
  A = 2; B = x; C = x; D = x; E = 9; F = x; G = 4342

Later entries
Keys: A = PrP 5UTR inh; B = Mtb hypoxia rep; C = Mtb hypoxia rep growth; D = Sa RN4220 lethal; E = BJeLR lethal; F = ugtP null kill; G = Bead autofluor
> Cc1ccc2nccc(C(=O)N3CCCC(Nc4ccc(C)c(C)c4)C3)c2c1 (centres undefined)
  A = -3; B = -11; C = 7; D = 3.4; E = 11; F = 4; G = 5543
> CCCCN(C(=O)C1CC(=O)N(CCc2ccc(OC)c(OC)c2)C1)c1c(N)n(CCCC)c(=O)[nH]c1=O (centres undefined)
  A = -1; B = 4; C = -7; D = 3.8; E = -6; F = 6; G = u
> COc1ccc2nc(N3C(=O)/C(=C/c4ccc(Cl)cc4)NC3=S)sc2c1
  A = -27; B = 10; C = 13; D = 11; E = x; F = 68; G = 3428
> COc1ccc(CCNC2CC(=O)N(N(C)C)C2=O)cc1OC (centres undefined)
  A = -10; B = 8; C = 7; D = 5.4; E = 7; F = 5; G = 4677
> O=S(=O)(c1ccccc1)N1CCN(C(c2ccccc2)c2ccc(OC(F)(F)F)cc2)CC1 (centres undefined)
  A = -6; B = -12; C = 6; D = -3.5; E = -5; F = -15; G = 3682

Among those listed so far, these contain a thiophene ring, fused or not.
Keys: A = PrP 5UTR inh; B = Mtb hypoxia rep; C = Mtb hypoxia rep growth; D = Sa RN4220 lethal; E = BJeLR lethal; F = ugtP null kill; G = Bead autofluor
> CCCCn1c(N)c(N(CC(C)C)C(=O)C2CCN(c3ncnc4sc(C)c(C)c34)CC2)c(=O)[nH]c1=O
  A = 2; B = -3; C = 15; D = -4.2; E = 2; F = 0; G = 5898
> COc1ccc(N2C(=O)NC(=O)/C(=C/c3cccc(OC(=O)c4cccs4)c3)C2=O)cc1Cl
  A = x; B = 6; C = 10; D = 2.9; E = -3; F = 5; G = x
> Cc1ccc(CCNC(=O)C2CCCN(S(=O)(=O)c3cccs3)C2)cc1 (centres undefined)
  A = -22; B = 1; C = 11; D = -1.2; E = 7; F = -2; G = 9373
> O=C(NCc1ccco1)c1cc2sccc2n1Cc1ccccc1
  A = -24; B = 4; C = -3; D = -0.9; E = -2; F = 0; G = 8509
> COC(=O)c1ccc(CSc2nc3sc4c(c3c(=O)n2C)CCCC4)o1
  A = -4; B = 3; C = 6; D = 2.2; E = 1; F = -1; G = 6349

Screens (PubChem BioAssay)
